Source: PubChem
Mtb betalactam = beta-lactam sensitization of Mtb H37Rv, H37Rv; 0.27% of 330,000 active; M. tuberculosis H37Rv growth with meropenem, percent inhibition; hits of this screen are not shown here; inhibition, % at 25 µM;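 active = about 74% or more and at least 40 points above the plate without the antibiotic, then above 30% in a dose series; inconclusive = first-round hits that could not be retested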;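 note: growth measured after seven days incubation then overnight dye step; 0% = bacteria only wells and 100% = bacteria with antibiotic; twin plates without the antibiotic show which effects depend on it; some results filed as inactive read as strong as hits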
Numbers without * were called inactive; ? = inconclusive. Some of the compounds tested, so the mix of outcomes need not match the whole.

SMILES	Mtb betalactam
COc1cccc(NC(=O)CN(C)C(=O)c2cccc(S(=O)(=O)Nc3ccccc3OC)c2)c1	-7.2
O=[N+]([O-])c1ccccc1/C=N/n1c(-c2ccccc2)n[nH]c1=S	-3.0
CCC(c1ccc(O)cc1)C(CC)c1ccc(O)cc1 (centres undefined)	-8.6
CCNc1nc2c(c(=O)n(C)c(=O)n2C)n1CCCc1ccccc1	-9.9
CC(C)c1cccc(C(C)C)c1NC(=O)CCN1C(=O)NC2(CCCC2)C1=O	0.3
COc1ccccc1Nc1nn2c(=O)c3ccc(C(=O)N4CCCC(C)C4)cc3nc2s1 (centres undefined)	52.1
Cc1ccc([C@@H]2CC=C(C(=O)O)[C@H](c3cccc(Cl)c3)N2S(=O)(=O)c2ccccc2C)cc1	-1.3
CC(=O)[C@@]1(O)CCC2C3CC[C@H]4C[C@@H](O)CC[C@]4(C)C3CC[C@@]21C (some centres undefined)	-2.5
O=C(COC(=O)c1ccco1)Nc1cccc(S(=O)(=O)N2CCCCC2)c1	0.8
COc1cc(OC)cc(C(=O)N2CCC(C(=O)NCCc3ccccc3)CC2)c1	1.1
CCN(CC)S(=O)(=O)c1cccc(NC(=O)COC(=O)C2=COCCO2)c1	9.2
Cc1cc(C)n2nc(SCC(=O)NC(=O)c3ccccc3)nc2n1	2.1

Continued (7 carried over from the part before).
SMILES	Mtb betalactam
COc1ccccc1Nc1nn2c(=O)c3ccc(C(=O)N4CCCC(C)C4)cc3nc2s1 (centres undefined)	52.1
Cc1ccc([C@@H]2CC=C(C(=O)O)[C@H](c3cccc(Cl)c3)N2S(=O)(=O)c2ccccc2C)cc1	-1.3
CC(=O)[C@@]1(O)CCC2C3CC[C@H]4C[C@@H](O)CC[C@]4(C)C3CC[C@@]21C (some centres undefined)	-2.5
O=C(COC(=O)c1ccco1)Nc1cccc(S(=O)(=O)N2CCCCC2)c1	0.8
COc1cc(OC)cc(C(=O)N2CCC(C(=O)NCCc3ccccc3)CC2)c1	1.1
CCN(CC)S(=O)(=O)c1cccc(NC(=O)COC(=O)C2=COCCO2)c1	9.2
Cc1cc(C)n2nc(SCC(=O)NC(=O)c3ccccc3)nc2n1	2.1
C[C@H](CO)N1C[C@H](C)[C@@H](CN(C)S(=O)(=O)c2ccccc2)Oc2ccc(NC(=O)CCN3CCOCC3)cc2C1=O	5.3
O=C(O)CCc1ccc(S(=O)(=O)Nc2ccc(OCc3ccccc3)cc2)cc1	-1.5
CCC(C(=O)Nc1ccc(N2CCOCC2)c(S(=O)(=O)Nc2ccccc2OC)c1)c1ccccc1 (centres undefined)	-15.6
Cc1ccccc1-n1nnnc1SCC(=O)NNC(=O)c1ccc(NC(=O)CC#N)cc1	-8.0
CCOc1cc(C(=O)OCc2cc(=O)n3c(C)csc3n2)ccc1OC	0.5
COc1cccc(CC(=O)Nc2cc(S(=O)(=O)N3CCCCC3)ccc2C)c1	5.1
CSc1ncccc1C(=O)OCC(=O)Nc1ccc(Cl)cn1	-1.9
CCOc1cc(/C=C2\N=C(C)OC2=O)cc(Cl)c1OCC(=O)OC	4.3
O=C(COC(=O)COc1ccccc1)NCc1ccc2c(c1)OCO2	4.4
CCCn1c(N)c(C(=O)CN(C)CC(=O)Nc2ccccc2C(F)(F)F)c(=O)[nH]c1=O	-2.3
CC[C@H](C)[C@@H](C(=O)NCCCCCCCCCCC(=O)N1CCN(C(=O)OC(C)(C)C)CC1)n1cc(CCCCN=C(NC(=O)OC(C)(C)C)NC(=O)OC(C)(C)C)nn1	98.0
CN(CC(=O)Nc1cccc(S(=O)(=O)N2CCCCC2)c1)Cc1ccc(F)cc1	-4.8
CC(C)Oc1ccc(C(=O)NCC(=O)Nc2ccc3c(c2)CCC3)cc1	0.9
Cc1cnc(NC(=O)c2ccc(F)c(S(=O)(=O)N3CCOCC3)c2)s1	8.6
CCN(CC)C(=O)c1ccc(NC(=O)COC(=O)c2ccc(Cl)s2)cc1	-4.0
C=CCN(C(=O)Nc1ccc(OC)cc1)c1nnc(-c2ccncc2)s1	-7.9
COc1ccc2c3c1OC1C(O)C=CC4[C@@H](C2)N(C)CC[C@]314 (some centres undefined)	-2.1
CCCNC(=O)N1[C@H]2CC[C@@H]1C(C(=O)OC)=C(c1cccc(Cl)c1)C2	1.6
Cc1ccc(CCC(=O)Nc2ccc(Cl)cc2)o1	10.3
CN1C2CCC1C(C(=O)O)C(O)C2 (centres undefined)	-1.9
CCN(C[C@H]1N[C@@](Cc2ccccc2)(C(=O)OC)[C@H]2C(=O)N(C)C(=O)[C@@H]12)C(=O)C1CCCCC1	0.4
COc1ccc(NC(=O)CN2CCCCC2)cc1S(=O)(=O)N1CCCCC1	3.4
CN(CC(=O)Nc1ccc(F)cc1)C(=O)C1CCCC1	1.9
COc1ccc2cc(C=NS(=O)(=O)c3ccc(C)cc3)n(C)c2c1	14.1
Cc1ccc(N(CC(=O)NCc2ccccc2)C(=O)CCC(=O)Nc2ccccn2)c(C)c1	1.1
O=C(OCC(=O)N1CCN(Cc2ccccc2)CC1)c1cc(Cl)ccc1[N+](=O)[O-]	48.1
Cc1ccc(NC(=O)COC(=O)C2=NN(c3ccccc3)C(=O)CC2)c(Br)c1	-1.9
COc1ccc(SC[C@H](Cc2ccccc2)N2CC[C@@H](C(C)(C)C)CCC2=O)cc1	-10.0
COc1ccc(C=NNc2ccc([N+](=O)[O-])cc2S(=O)(=O)Nc2ccccc2C(=O)O)cc1OC	-9.0
NC(=O)c1ccccc1NS(=O)(=O)c1ccc(S(=O)(=O)N2CCCC2)cc1	-5.8
COC(=O)[C@H](CCSC)NC(=O)Cn1ccc(NC(=O)OCc2ccccc2)nc1=O	5.7
COc1ccc(S(=O)(=O)N2CCCCCC2)cc1C(=O)N(C)CC(=O)Nc1ccccc1C(F)(F)F	-12.7
Cc1cc(C)c(C)c(S(=O)(=O)NCCCn2ccnc2)c1C	-0.5
COc1ccc(/C=C/C(=O)OCC(=O)c2ccc3c(c2)NC(=O)CO3)cc1	4.2
COc1cccc(CNC(=O)CSc2nnc3c(n2)[nH]c2ccccc23)c1	-4.1
CCn1c(C)cc(C(=O)COC(=O)c2cccnc2SC)c1C	-6.0
Cc1cccc(N2CCN(C(=O)[C@H](C)N3C(=O)C4CC=CCC4C3=O)CC2)c1C (some centres undefined)	-11.6
Cc1cc(C)n2nc(C(=O)OCC(=O)N(CC(C)C)C3CCS(=O)(=O)C3)nc2n1 (centres undefined)	-3.0
CCn1nc(C(=O)NNC(=O)c2cc(Cl)ccc2OC)c2ccccc2c1=O	21.0
O=C(O)c1ccc(S(=O)(=O)c2ccc3c(c2)C(=O)N(c2ccccc2[N+](=O)[O-])C3=O)cc1	-6.3
Cc1ccccc1OCC(=O)OCC(=O)NCCc1ccccc1	-1.3
O=C1C=C(c2ccc(C(=O)O)cc2)C[C@@H](c2ccc(Cl)cc2)C1	5.5
COc1ccc(NS(=O)(=O)c2cc(NC(=O)Cc3c(F)cccc3Cl)ccc2OC)cc1	-2.9
Cc1onc(-c2ccccc2)c1C(=O)OCC(=O)N1CCC(C)CC1	2.5
Cc1ccc(C)c(OCC(=O)Nc2c(C)n(C)n(-c3ccccc3)c2=O)c1	-10.5
CC(=O)c1c(C)[nH]c(C(=O)OCC(=O)c2ccc3c(c2)NC(=O)CO3)c1C	-2.7
CCOc1ccc(S(=O)(=O)N2CCCCC2)cc1NS(=O)(=O)c1cccs1	-1.7
COc1ccc(N2CCN(C(=O)CN3C(=O)NC(C)(C4CC4)C3=O)CC2)cc1 (centres undefined)	-4.9
O=C(COC(=O)/C=C/c1cccc(F)c1)NC1CC1	-2.5
CCOC(=O)c1c(NC(=O)COC(=O)c2cnccn2)sc(C)c1C	17.0
C=CC[C@@H](CC(=O)NCCO)C(=O)NCCOC(=O)[C@@H](CC=C)Cc1ccc(F)cc1	-1.4
CC(C(=O)N1CCc2ccccc21)N1CCN(S(=O)(=O)c2cccs2)CC1 (centres undefined)	-3.8
CCCCOc1ccc(C(=O)NNC(=O)c2cnccn2)cc1OC	85.0
Nc1nc(COC(=O)C2CC(=O)N(Cc3ccccc3)C2)nc(Nc2ccccc2)n1 (centres undefined)	-5.0
CCCn1nc(C(=O)N2CCN(c3ccccn3)CC2)c2ccccc2c1=O	-6.2
COc1ccc2c(c1)[C@@H]1[C@H](CO2)[C@H](c2ccccc2)[C@]2(C)C(=O)Nc3ccc(C)cc3C(=O)N12	99.5
O=C(Nc1ccc(C(=O)N2CCCC(CO)C2)cc1)c1ccc(Br)o1 (centres undefined)	12.1
CCn1c(SCC(=O)NCC2CCCO2)nnc1-c1ccccc1OC (centres undefined)	11.4
O=C(Cn1cnc2c(OCc3ccccc3)ncnc21)N1CCN(c2ccccn2)CC1	-4.9
O=C(NNC(=O)C(O)c1ccccc1)NC1CCCCC1 (centres undefined)	-0.3

(continued)
SMILES	Mtb betalactam
COC(=O)C1=C(c2ccc(Cl)c(C(F)(F)F)c2)C[C@@H]2CC[C@H]1N2C(=O)NCC1CC1	-3.6
CCC(CO)Oc1cc(NCc2ccccc2C)c2ncn(C(C)C)c2c1 (centres undefined)	-1.1
C[C@H]1CN=C(N(C)C)N1CCCC1CCCC1	-6.5
CCOC(=O)c1c(C)[nH]c(C(C)=NNC(=O)c2cccs2)c1C	2.5
COc1ccc([C@H]2CC(=O)C=C(C#CC(C)(C)C)C2)cc1	17.4
O=C(CNC(=O)c1ccc(Br)o1)NCC1CCCCC1	16.5
COc1ccc(-c2ccc3c(c2)S(=O)(=O)c2cccc(C(=O)N4CCN(c5ccc(Cl)cn5)CC4)c2C3=O)cc1OC	4.9
C=CC[C@H](CC(=O)NCCO)C(=O)N[C@H](COC(=O)[C@H](CC=C)CC(=O)OC(C)(C)C)c1ccccc1	3.9
NC(=O)c1ccccc1OCC(=O)N1CCC(Cc2ccccc2)CC1	1.8
C[C@H]1C(=O)O[C@@H]2CCN3CC=C(COC(=O)[C@](C)(O)[C@]1(C)O)[C@H]23	0.4
C[C@H](CO)N1C[C@H](C)[C@@H](CN(C)C(=O)Nc2ccc(C(F)(F)F)cc2)Oc2c(NC(=O)Cc3ccccc3)cccc2C1=O	6.3
CC1(C2CC2)NC(=O)N(CC(=O)N2CCN(c3ccccc3)CC2)C1=O (centres undefined)	1.8
O=C(NCCc1ccc(Cl)cc1)c1ccc(=O)[nH]c1	-4.1
O=C1N[C@@H](Cc2ccccc2)COC(=O)[C@@H](Cc2ccc(F)cc2)C/C=C\C[C@@H]1CC(=O)N(CCO)Cc1ccccc1	-8.6
O=C(COC(=O)c1cc(S(=O)(=O)N2CCOCC2)ccc1F)NC1CCCCC1	-5.2
Cc1cccc(NC(=O)C2CCN(S(C)(=O)=O)CC2)c1C	-9.3
CCN(C(=O)COC(=O)c1ccccc1OCc1ccc(Cl)cc1)C1CCS(=O)(=O)C1 (centres undefined)	-6.5
CC(=O)Nc1ccc(NC(=S)NC(=O)C2CC2)cc1	?
COc1ccc(/C=C/C(=O)OCC(=O)NC(C)CCc2ccccc2)cc1OC (centres undefined)	6.5
CCOc1ccccc1OC(=O)CN1C(=O)c2ccccc2C1=O	3.3
CC(=O)Nc1ccc(C(=O)COC(=O)c2cc(C)oc2C)c(F)c1	5.3
CCOc1ccc(NC(=O)CN2C(=O)NC3(CCCCCC3)C2=O)cc1	-4.0
COC(=O)C[C@H](NC(=O)Cn1cnc2c(OCc3ccccc3)ncnc21)C(=O)OC	4.8
CCN(C[C@H]1N[C@@](Cc2ccccc2)(C(=O)OC)[C@H]2C(=O)N(C)C(=O)[C@@H]12)C(=O)COc1ccccc1	1.8

4 entries from above, with each value named.
> Cc1ccc(N(CC(=O)NCc2ccccc2)C(=O)CCC(=O)Nc2ccccn2)c(C)c1
  Mtb betalactam: 1.1

> Cc1ccccc1-n1nnnc1SCC(=O)NNC(=O)c1ccc(NC(=O)CC#N)cc1
  Mtb betalactam: -8.0

> CCOc1ccc(S(=O)(=O)N2CCCCC2)cc1NS(=O)(=O)c1cccs1
  Mtb betalactam: -1.7

> COc1ccc2cc(C=NS(=O)(=O)c3ccc(C)cc3)n(C)c2c1
  Mtb betalactam: 14.1

Other entries:
SMILES	Mtb betalactam
COC(=O)[C@]1(Cc2ccccc2)N[C@H](c2ccc(SC3CCCCC3)c(OC)c2)[C@@H]2C(=O)N(C)C(=O)[C@@H]21	-2.8
CCN(CC(=O)Nc1ccc(NC(C)=O)cc1)CC(=O)Nc1cc(C)on1	-6.0
O=C(CC1SC(N2CCCCC2)=NC1=O)Nc1cccc(C(=O)NCc2ccccc2)c1 (centres undefined)	-6.3
COc1ccc(C(C)=O)cc1CSc1ccc(S(=O)(=O)N2CCCCC2)cn1	-11.0
O=C(C[n+]1ccc(/C=N/O)cc1)NC(=O)Nc1ccccc1	-8.1
OCC1CO1 (centres undefined)	-6.2
O=C(NCCOc1ccccc1Cl)c1cccc2c1C(=O)c1ccc(Cl)cc1S2(=O)=O	-7.8
Cc1ccc(S(=O)(=O)/N=C(/Nc2ccccc2C)c2ccccc2)cc1	-0.5
Cc1ccc(C(=O)N(Cc2nnc(-c3ccc(Cl)cc3)o2)C2CC2)o1	3.1
CCN(CC)S(=O)(=O)c1ccc(OC)c(NC(=O)c2ccc(N3CCCC3=O)cc2)c1	1.1
CC1CCC(CN2C(Nc3ccccc3)=NC[C@@H]2Cc2ccccc2)CC1 (some centres undefined)	14.9
FC(F)Oc1ccc(N=C2SCC3CCCCN23)cc1 (centres undefined)	-6.5
CC1Sc2ccc(C(=O)NCc3ccccn3)cc2NC1=O (centres undefined)	4.8
CN(c1ccccc1)S(=O)(=O)c1cccc(NC(=O)C2=NN(c3ccccc3)C(=O)CC2)c1	2.9
C=CCn1c(SCC(=O)c2c(N)n(C3CC3)c(=O)[nH]c2=O)nnc1-c1ccoc1C	-1.8
CC(=O)c1ccc(NC(=O)N2C[C@H]3C[C@@H](C2)c2cccc(=O)n2C3)cc1	-1.6
C[C@@]12C(=O)N(c3cccc(F)c3)C(=O)N1[C@@H]1c3ccccc3OC[C@@H]1[C@H]2c1ccccc1	-5.0
COc1cc(F)cc(C2=CC(=O)C[C@H](c3ccc(F)cc3)C2)c1	-1.4
COc1ccccc1C(=O)Nc1ccncc1	0.3
